# Bioassay records as filed in PubChem.
# AmpC nodet inh: Promiscuous and Specific Inhibitors of AmpC Beta-Lactamase (assay without detergent); Potency, µM (titrated, usually from 28.7 µM), inactives show at the top dose activity change, negative = inhibition; 71,000 tested, 1.8% active; AmpC nitrocefin hydrolysis, absorbance 480 nm, no detergent; potencies from a single point are estimates; P00811; active = falling curve, for most hits resting on a single point; inconclusive = weak or doubtful change; inactive = flat or rising curve; note: % of control where 0% means no effect; about half of the hits show no inhibition at the top dose; a quarter of the inactives give rising signals
# Target sequence (P00811 whole entry, looked up): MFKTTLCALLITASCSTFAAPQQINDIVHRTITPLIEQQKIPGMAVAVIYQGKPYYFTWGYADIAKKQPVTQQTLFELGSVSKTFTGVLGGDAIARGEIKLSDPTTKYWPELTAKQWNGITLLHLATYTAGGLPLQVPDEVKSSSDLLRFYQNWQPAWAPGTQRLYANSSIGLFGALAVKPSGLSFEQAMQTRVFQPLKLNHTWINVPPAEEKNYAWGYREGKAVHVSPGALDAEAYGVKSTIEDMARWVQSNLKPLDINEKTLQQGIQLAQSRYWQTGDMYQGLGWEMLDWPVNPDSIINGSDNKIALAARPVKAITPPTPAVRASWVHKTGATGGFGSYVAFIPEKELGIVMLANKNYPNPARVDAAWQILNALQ
#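 AmpC in 20 mM phosphate buffer pH 7.0 was preincubated 15 min at room temperature with compounds. Nitrocefin (800 uM stock) was then added and hydrolysis followed at 480 nm every 20 s for 4 min.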
# * hit, by the source's call; ? = inconclusive; [ ] = another dose, or the depositor's remark. Potency is the fitted concentration of half-maximal effect. These rows are one share of the data; the hit share may differ from the screen's.
compound | AmpC nodet inh
CCCC(=O)Nc1cc(OC)c(NC(=O)NC2CCCCC2)cc1OC | 28.3%
Cc1ccc2nc(-c3cccnc3)oc2c1 | 6.2%
Cc1csc(-c2coc3cc(O)cc(C)c3c2=O)n1 | -3.3%
CCCCN(C(=O)Cn1nnc2ccccc21)C(C(=O)NCc1ccco1)c1ccncc1 (stereo not drawn) | 13.8%
CC1CCC2(CC1)NC(=O)N(CC(=O)NC(=O)NC1CCCC1)C2=O (stereo not drawn) | 21.9%
O=C(NCCCCNC(=O)c1c(F)c(F)c(F)c(F)c1F)c1c(F)c(F)c(F)c(F)c1F | -9.2%
COc1ccc(OCC(O)CN2C(=O)c3ccccc3S2(=O)=O)cc1 (stereo not drawn) | -5.5%
O=C(Cn1c(=O)sc2ccccc21)Nc1ccc(S(=O)(=O)N2CCCC2)cc1 | -20.5%
O=S1(=O)N=CN(Cc2cccc(F)c2)c2ccccc21 | -11.6%
Cc1cccn2c(=O)c3cc(C(=O)N4CCN(C(=O)c5ccco5)CC4)n(C)c3nc12 | 67.6%
CCOC(=O)c1cnc(-n2nc(C)cc2C)nc1NCCc1ccccc1 | 120.5%
FC(F)(F)c1ccccc1-c1nc(Nc2ccncc2)c2ccccc2n1 | 42.9%
COc1cc2ccccc2c2cc([N+](=O)[O-])oc12 | 6.5%[5.75 µM]
CCOC(=O)c1c(C)c(C(=O)Nc2ccc(N(C)C)cc2)c(C)n1CC | 57.9%
COC(=O)c1ccc(C=O)cc1 | -1.2%
COc1ccc(OC)c(C(=O)CN2C(=O)NC(C)(c3ccccc3)C2=O)c1 (stereo not drawn) | 6.6%
NCCCCCCNS(=O)(=O)c1cccc2ccccc12 | -10.7%
CC(C)C[C@H](NC(=O)Nc1cccc(C(F)(F)F)c1)C(=O)O | -7.7%
CC1(C)CC(=O)C(C=Nc2ccc3[nH]ncc3c2)=C(O)C1 | -3.8%
O=C(CSC1=NCCN1)NC12CC3CC(CC(C3)C1)C2 | -9.7%
O=c1cccc(-c2ccc(Br)cc2)o1 | 3.1%
O=C(NCC1CCCO1)c1nc2c(nnn2Cc2ccc(F)cc2)c(=O)[nH]1 (stereo not drawn) | -15.0%
CCOC(=O)c1sc2ncnc(NCC(c3cccs3)N(C)C)c2c1C (stereo not drawn) | 61.6%
CSc1ncc(Cl)c(C(=O)NCc2ccc3c(c2)OCO3)n1 | -11.3%
COc1nc(-c2ccccc2)ccc1-c1noc(C)n1 | 66.5%
CCCCC(=O)Nc1cc2nn(-c3ccc(OC)cc3)nc2cc1C | 29.4%
O=C1C(=O)N(Cc2ccco2)C(c2cccc(Cl)c2)/C1=C(\O)c1ccc2c(c1)OCCO2 (stereo not drawn) | -17.4%
COc1ccc(CCn2c(SCC(=O)Nc3cc(C)on3)nc3ccccc3c2=O)cc1OC | 33.3%
O=c1c(-c2cccs2)nc2cnc(N3CCOCC3)nc2n1-c1ccccc1 | 56.9%
CCCC1=C(C(=O)OCC)C2(C(=O)Nc3ccc(C)cc32)C(C#N)=C(N)O1 (stereo not drawn) | 30.6%
CCOc1ccccc1OCCCCN1CCCC1 | -5.4%
COc1ccc2c(c1)c(C(=O)CN1CCN(C(=O)c3ccco3)CC1)c(C)n2C | 73.3%
Cc1noc(C)c1C(=O)Nc1ccc(Cl)cc1C(F)(F)F | 9.5%
CCOC(=O)c1c(N)n(CCN2CCCCC2)c2nc3ccccc3nc12 | 28.8%
O=S(=O)(c1ccc(NCCc2c[nH]c3ccccc23)nc1)N1CCOCC1 | -6.4%
CC(C)C(=O)N1CCc2cc(-c3csc(N)n3)ccc21 | -4.4%
O=C(CSc1ccccc1)N1CCC2(CC1)OCCO2 | 25.0%
CSC1CCCCC1(O)CSc1nc2ccccc2o1 (stereo not drawn) | 3.8%
CCN1C(=O)CSc2ccc(C(=O)OC)cc21 | 13.8%
CCN(CC)C(=O)c1ccc(N2C(=O)C3CC=C(Cl)CC3C2=O)cc1 (stereo not drawn) | 33.3%
CCOc1cccc(-c2nnc(SCC(=O)Nc3cc(OC)cc(OC)c3)n2N)c1 | 15.4%
Cc1ccnc(NC(=O)CCC(=O)N(CC(=O)NC(C)(C)C)C2CCCC2)c1 | 36.2%
O=C(CCC1(C(=O)O)CCC(=O)NC1)NCc1ccccc1 (stereo not drawn) | 0.2%
O=c1[nH]c(CN2CCN(c3ccccc3Cl)CC2)nc2ccsc12 | 29.4%
COC(=O)c1cc2ccsc2n1CC(=O)Nc1cc(C)cc(C)c1 | -18.5%
Cc1ccc(NC(=O)c2cc(-c3ccco3)on2)cc1 | -22.0%
CCn1c2ccccc2c2cc(Nc3cc(C)nc4ncnn34)ccc21 | 119.1%
Cc1ccccc1-n1c(SC/C(O)=C(\C#N)c2nc3ccccc3[nH]2)nnc1-c1ccncc1 | 75.9%
CCc1ccc(-n2c(SCC(=O)Nc3cc(C)[nH]n3)nc3[nH]ncc3c2=O)cc1 | 31.8%
CCC(=Nc1ccccc1NC(C)=O)c1c(O)n(C)c(=O)n(C)c1=O | 1.0%

# (further entries)
compound | AmpC nodet inh
CCC(C)NC(=O)N[C@@H](CCSC)C(=O)O (stereo partly drawn) | -4.1%
COCCCNC(=O)Cn1cc(C(C)=O)c2ccccc21 | -7.2%
CCc1ccc(CCC(=O)Nc2nccs2)o1 | -8.2%
COCCn1c(=O)c(-c2cc(F)cc(F)c2)nc2cnc(N3CCOCC3)nc21 | -6.5%
COc1cc2c(cc1O)C[C@H]1c3c(cc(O)c(OC)c3-2)CCN1C | -13.0%
O=C1CCCN1CCC1CCN(C2CC(=O)N(c3ccc(F)cc3)C2=O)CC1 (stereo not drawn) | 12.3%
CCCCNc1nc(C)nc2c1nc(-c1ccccc1)n2C(C)CCCN(CC)CC (stereo not drawn) | 102.8%
COc1ccc(-c2c(C)nn3c(N4CCC(C(=O)N5CCCCC5)CC4)cc(C)nc23)cc1OC | 17.5%
COc1cccc(NC(=O)CCCn2c(=O)[nH]c3ccccc3c2=O)c1 | -17.4%
CCOc1ccc(N(C(C)=O)C2C=CS(=O)(=O)C2)cc1 (stereo not drawn) | -3.1%
COC(=O)c1sc(N)c(C(=O)OC)c1COC(=O)c1c(C)noc1C | 12.5%
O=C(Nc1ccncc1)c1ccc2c(c1)OCCO2 | -4.8%
CC1CN(C2CCCCC2)c2nc3c(c(=O)[nH]c(=O)n3C)n2C1 (stereo not drawn) | 21.9%
O=C(Nc1ccon1)c1csc2c1CCCC2 | -17.1%
CN(C)S(=O)(=O)c1ccc2c(c1)c(=O)c(C(=O)NCCCN1CCCCCC1)cn2C | 135.0%
COc1ccc(C(=O)CN2CCN(c3ccc(F)cc3)CC2)cc1OC | 29.8%
CCCC1=C(C(=O)OCC)C(c2ccc(NC(C)=O)cc2)NC(=O)N1 (stereo not drawn) | 8.6%
O=C(Nc1ccc2oc(-c3ccncc3)nc2c1)c1ccccc1F | -0.2%
COCCn1c(SCC(=O)OC(C)C)nnc1-c1ccccc1 | 1.4%
O=C(NCCc1nc2ccccc2[nH]1)c1ccc(F)cc1 | 15.1%
COc1ccc(-c2nnc3sc(C4CCCCC4)nn23)cc1OC | 111.3%
Cc1cccc(NC(=O)Cn2nnc(-c3ccc(CN4CCCC4)cc3)n2)c1C | 15.7%
O=C(O)Cc1cccc2c(=O)cc(-c3ccccc3)oc12 | 2.4%[5.75 µM]
O=C(O)CCC(=O)c1ccc2ccc3cccc4ccc1c2c34 | -4.7%[5.75 µM]
O=C(Cn1c(C(=O)NCC2CCCO2)cc2sccc21)c1ccccc1 (stereo not drawn) | 25.1%
N/C(CN1CCCC1=O)=N\O | -0.7%
COc1ccccc1OCCSc1nc2ccccc2c(=O)[nH]1 | 6.8%
O=C(c1ccco1)N1CCC[C@@]2(CCN(c3ccccn3)C2)C1 | 18.5%
Cn1c(=O)oc2cc(S(=O)(=O)NCCC(=O)NCCc3ccc(Cl)cc3)ccc21 | 20.4%
CCc1sc(C(=O)Nc2ccsc2C(=O)OC)cc1Br | -19.0%
CCCC[C@@H]1C[C@H]1C(NC(=O)c1cccnc1)c1ccc(-c2ccccc2)cc1 (stereo partly drawn) | 45.5%
CCOC(=O)CNc1nc(C#N)nc(N2CCOCC2)n1 | 19.4%
O=C(COC(=O)C1COc2ccccc2O1)NC(=O)Nc1ccc2c(c1)OCCO2 (stereo not drawn) | ?
C=CCN(C(=O)CNC(=O)c1ccco1)C(C(=O)NC1CCCCC1)c1ccccc1F (stereo not drawn) | 4.3%
CCCCOc1ccccc1Cn1c(=O)oc2ccccc21 | -0.3%
Cn1cc(-c2nc3cnc(N4CCOCC4)nc3n(C3CC3)c2=O)c2ccccc21 | -2.3%
CCOc1cc2c(cc1OCC)C(C(=O)O)C(c1cc(OC)c(OC)c(OC)c1)N(C)C2=O (stereo not drawn) | 4.1%
CCCCN(C(=O)NC(=O)Nc1ccccc1C)S(C)(=O)=O | -10.9%
CN(C)c1ccc(/C=C/c2cc[n+]([O-])cc2)cc1 | 5.3%
CCNS(=O)(=O)c1cc(Br)ccc1OC | 1.0%
COc1ccc(N(CC(=O)Nc2ccc3c(c2)OCO3)S(=O)(=O)c2ccccc2)c(OC)c1 | -12.7%
COc1ccccc1NC(=O)Nc1ncccc1C | 17.0%
Cc1cc(C)c(NC(=O)CS(=O)CC(=O)N2CCN(c3ccc(F)cc3)CC2)c(C)c1 (stereo not drawn) | 80.8%
Cc1ccc(-c2nc3c(=O)n(C)c4ccccc4c3o2)cc1 | 54.7%
O=C(Nc1cccc(C(=O)N2CCOCC2)c1)c1ncn[nH]1 | -12.8%
CC1CCN(CCCNC(=O)c2n[nH]c(=O)c3ccccc23)CC1 | -19.8%
O=C(CCc1ccccc1)Nc1nc2ccc(S(=O)(=O)N3CCOCC3)cc2s1 | -4.5%
O=C(O)/C(Cc1cn[nH]n1)=N\O | -1.6%[5.75 µM]
CCn1nnnc1SCC(=O)N1CCOCC1 | 12.3%
O=C(Nc1ccccc1)NC1(C(=O)NCc2ccco2)CCCCC1 | 10.0%

# Three records drawn at random from those above, as already listed:
compound | AmpC nodet inh
CCn1nnnc1SCC(=O)N1CCOCC1 | 12.3%
COc1ccccc1NC(=O)Nc1ncccc1C | 17.0%
CC1CCN(CCCNC(=O)c2n[nH]c(=O)c3ccccc23)CC1 | -19.8%

# Additional compounds.
compound | AmpC nodet inh
O=C1NC(=S)S/C1=C1\Sc2ccccc2N1CCCS(=O)(=O)O | -8.9%
O=C(O)COc1ccc(-c2nnn(Cc3ccccc3F)n2)cc1 | 0.7%
CCn1c(COc2ccc(Cl)cc2)nnc1SCC(=O)Nc1ccc2c(c1)OCCO2 | 20.0%
N=c1c2c(-c3ccccc3)c(-c3ccccc3)n(Cc3ccco3)c2ncn1CCN1CCOCC1 | 112.5%
N#Cc1ccc2ccn(CC(=O)N3CCCc4ccccc43)c2c1 | -13.6%
O=C(O)Cn1nnnc1-c1ccc(F)cc1 | 0.7%
Cc1[nH]c2ccc(Br)cc2c(=O)c1CN1CCOCC1 | -12.0%
CC1(C(=O)NCc2cccnc2)CCC(=O)N1Cc1cccs1 (stereo not drawn) | 3.98µM*[single pt active]
Cc1cc2c(cc(C(=O)N3CCC(C(=O)NC4CCCC4)CC3)n2Cc2c(F)cccc2Cl)o1 | 6.9%
CCOC(=O)C1CCN(C(=O)CN(C)S(=O)(=O)c2cc(C)ccc2OC)CC1 | 49.9%
COc1ccccc1NC(=O)CN1CCCCC1 | 0.9%
Oc1ccc2ccccc2c1C=NCc1c(O)ccc2ccccc12 | -20.6%[5.75 µM]
Cc1cc(C2(c3cc(C)c(O)c(C(=O)O)c3)OS(=O)(=O)c3ccccc32)cc(C(=O)O)c1O | -13.4%[5.75 µM]
CN(C)c1ncc2nc(-c3cccc(C#N)c3)c(=O)n(CCC#N)c2n1 | 0.4%
O=C(c1ccco1)[C@@H]1[C@@H]2C(=O)N(c3ccc(F)cc3)C(=O)[C@@H]2C2c3ccccc3C=CN21 (stereo partly drawn) | 13.6%
Nc1nc(-c2cccnc2)cc(-c2cc(-c3cccnc3)nc(N)n2)n1 | 12.2%[5.75 µM]
COc1ccc(CCNC(=O)CCNS(=O)(=O)c2ccc3c(c2)CCN3C(C)=O)cc1OC | 15.8%
COc1ccc(N2CSC3=C(C#N)C(c4cc(OC)c(OC)cc4OC)CC(=O)N3C2)c(OC)c1 (stereo not drawn) | 96.2%
COc1ccc(CNC(=O)CSc2nnc(-c3ccc(NC(C)=O)cc3)n2C)cc1 | -3.8%
CC(=O)N1CCc2cc(S(=O)(=O)CCC(=O)N3CCN(C(=O)c4ccco4)CC3)ccc21 | 12.2%
COc1ccc2[nH]c(=O)c(CN(Cc3ccc(C)cc3)Cc3nnnn3CC3CCCO3)cc2c1 (stereo not drawn) | 117.8%
COc1ccc(-c2csc(NC(=O)C3CCCO3)n2)cc1 (stereo not drawn) | 31.2%
Cc1ccc(C(C)NC(=O)c2cc(C)oc2C)cc1 (stereo not drawn) | -3.3%
COc1ccccc1CNC(=O)COC(=O)c1ccc(NC(N)=O)cc1 | -6.1%
COc1ccc(NC2=NCCC(=O)N2Cc2cccs2)cc1 | 4.5%
CC(=O)Nc1ccc(S(=O)(=O)N(C)c2ccc(O)cc2)cc1 | -23.0%
COC(=O)CSc1nc2cc(Cl)ccc2c(=O)n1C1CCCC1 | 18.3%
Cn1nc(-c2ccc(N3CCOCC3)c(NS(=O)(=O)c3ccccc3)c2)c2ccccc2c1=O | 92.6%
O=C(O)CCCC[C@H]1SC[C@H]2NC(=O)N[C@@H]21 | 7.4%[12.8 µM]
CN1CCc2cccc(Cl)c2CC1 | 1.0%
COC(=O)c1cc2oc(C)cc2n1CC(=O)N1CCCc2ccccc21 | 30.5%
